# GALR2 agonist = GALR2 (human) receptor agonism. AID 803. GALR2-expressing cells, agonist activation read-out. 140,000 tested, 0.48% active. activation, %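 (tested at 5 µM)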. O43603;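 active means above mean plus 3 SD of all compounds, about 5% in these data, not always enough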;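 further: 0% = vehicle buffer wells and 100% = reference agonist at full effect; tested in CHO reporter cells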
# Target sequence (O43603 whole entry, looked up): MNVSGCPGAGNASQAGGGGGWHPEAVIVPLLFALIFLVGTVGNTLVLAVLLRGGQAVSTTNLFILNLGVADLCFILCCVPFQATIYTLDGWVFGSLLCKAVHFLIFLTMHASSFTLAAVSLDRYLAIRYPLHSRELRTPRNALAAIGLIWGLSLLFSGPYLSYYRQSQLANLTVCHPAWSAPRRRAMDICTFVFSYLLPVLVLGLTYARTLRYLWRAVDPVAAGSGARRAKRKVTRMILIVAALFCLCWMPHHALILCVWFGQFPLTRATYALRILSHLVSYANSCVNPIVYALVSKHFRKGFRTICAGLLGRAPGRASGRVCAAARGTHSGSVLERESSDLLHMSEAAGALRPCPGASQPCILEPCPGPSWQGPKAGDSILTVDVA
# PKD1 kinase inh = inhibitors of human PKD1 kinase. Q15139. PKD1 kinase fluorescence polarization assay. inhibition, %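 (about 10 µM by stock and volumes)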. 200,000 tested, 0.056% active;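 active means inhibition of 50% or more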;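 further: controls were vehicle for no effect and a reference inhibitor for full effect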
# INS promoter inh = TRM-6 insulin promoter activity inhibition | TRM-6 cells (human fetal islet line), insulin promoter-eGFP reporter, imaging; reporter expression induced with tamoxifen | inhibition, % at 2 µM | 130,000 tested, 0.9% active;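 active means inhibition above the mean plus 3 SD, with well images judged a real hit on visual review, cut at about 60% in these data, passing the limit was not always enough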
# RGS16-Gao = regulators of human RGS16-Galphao interaction | O15492+P09471 | bead-based flow cytometry RGS16-Galphao binding, fluorescence; actives lie on both sides | binding response (% of control), % at 10 µM | 220,000 tested, 0.38% active | AID 1441;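 active means below 25% or above 175%, edge rows of some plates excepted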;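 further: Galphao activated by GDP with aluminum fluoride before binding; 100% = wells without compound and 0% = beads without RGS; some results beyond the cut were filed as inactive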
# Target sequence (O15492 whole entry, looked up): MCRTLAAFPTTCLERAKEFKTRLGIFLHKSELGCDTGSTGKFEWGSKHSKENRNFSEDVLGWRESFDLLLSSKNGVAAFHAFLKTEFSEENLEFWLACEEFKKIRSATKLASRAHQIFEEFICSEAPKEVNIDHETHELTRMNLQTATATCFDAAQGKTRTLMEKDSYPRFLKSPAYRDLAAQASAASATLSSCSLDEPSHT
# Target sequence (P09471 whole entry, looked up): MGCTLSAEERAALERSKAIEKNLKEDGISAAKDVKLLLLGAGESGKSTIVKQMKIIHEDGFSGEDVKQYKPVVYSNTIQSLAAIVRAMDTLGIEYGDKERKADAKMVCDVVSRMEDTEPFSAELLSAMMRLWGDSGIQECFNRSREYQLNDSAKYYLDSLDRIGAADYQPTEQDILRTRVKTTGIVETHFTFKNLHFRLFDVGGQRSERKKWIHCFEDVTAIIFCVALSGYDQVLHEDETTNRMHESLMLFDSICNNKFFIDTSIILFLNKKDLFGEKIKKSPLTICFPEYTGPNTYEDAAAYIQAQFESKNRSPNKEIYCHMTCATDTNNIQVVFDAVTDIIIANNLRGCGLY
# HSV replic up = HSV replication enhancement | HSV replication augmentation in cells, fold increase | maximum fold increase | 220,000 tested, 0.005% active;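 active means peak rise of 1.5-fold or more in the series; tested in PC3 cells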;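 further: first round at 10 µM; read as green reporter fluorescence; hits show the peak of a series up to 25 µM; 1 = signal of infected wells without compound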
# INS promoter inh cell count = further read-out of INS promoter inh, marked with its call; normalized cell count, %; measured here: cell count, toxicity; reference of the scale not given here;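 cells exposed to compound for 48 h; stained nuclei by imaging scaled within each plate; lower means fewer cells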
# HSV replic up primary fold = second read-out of HSV replic up, no call of its own (marks repeat the call); fold increase; compound at 10 µM; measured here: primary screen fold increase 10 uM; tested in PC3 cells;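 GFP signal in the first replicate; 1 = infected wells without compound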
# An asterisk follows results filed as active; i = inactive; . = no result given. Outcome played no part in choosing rows. About 1.2% of those tested had a hit in this group.
SMILES,GALR2 agonist,PKD1 kinase inh,INS promoter inh,INS promoter inh cell count,RGS16-Gao,HSV replic up,HSV replic up primary fold
Cc1ccc(OCCCCn2cnc3ccccc32)c(C)c1,1.2,-5,-56,170,114,i,0.93
CC(/C=C1\SC(=S)N(CC(=O)O)C1=O)=C\c1ccccc1,.,.,.,.,104,i,0.92
CCN(CC)c1ccc(NC(=O)c2ccc(=O)[nH]c2)cc1S(=O)(=O)Nc1ccccc1OC,.,-3,-60,92,83,i,0.64
O=C(Nc1c2c(nn1-c1ccc(F)cc1)CSC2)c1ccc(S(=O)(=O)N2CCOCC2)cc1,1.3,12,36,88,94,i,0.89
CCc1nc2n[nH]c(N)c2c2c1CCCC2,-0.7,-3,36,96,107,i,1
COc1ccc(Nc2nnc(SCc3cn4c(C)cccc4n3)s2)cc1,1.2,-1,.,.,95,i,0.98
O=CN1CCN(C(=O)c2ccccc2F)CC1,-3.3,3,-33,125,105,i,0.96
CCCN(CCC)C(=S)NC(=O)c1ccc(Cl)cc1Cl,-0.3,1,20,123,101,i,0.84
CCOc1ccc(CN2CCN(S(=O)(=O)c3ccc(NC(C)=O)cc3)CC2)cc1,.,-1,.,.,101,i,1
Cn1cc([N+](=O)[O-])c(C(=O)Nc2cc(Oc3cccnc3)cc([N+](=O)[O-])c2)n1,8.1,-8,.,.,109,i,0.82
CCC(=O)c1ccc(N2CCCCCC2)c(F)c1,-2.6,8,-43,106,111,i,0.84
Cc1nn(C)c(C)c1S(=O)(=O)N(CC(=O)Nc1ccccn1)c1ccc(C(C)C)cc1,-1.6,3,.,.,101,i,0.88
COc1ccc(/C=C(/NC(=O)c2ccccc2)C(=O)N/N=C/c2cccs2)cc1OC,-2.4,1,.,.,99,i,1
O=C(NCc1cccnc1)c1cnn2ccccc12,-3.5,-9,.,.,106,i,0.93
COc1nc(Cl)cn(-c2ccc(Cl)cc2)c1=O,-1.4,-4,3,114,82,i,0.98
Cc1noc(-c2ccccc2OC(=O)c2ccccc2)n1,-0.9,-10,-74,108,97,i,1.1
Fc1ccc(Sc2nc(-c3ccccc3)nnc2C(F)(F)F)cc1,-2.4,-7,10,93,99,i,0.62
O=C(CN1CCN(c2ccccn2)CC1)N(c1ccccc1)c1ccc2ccccc2c1,-0.7,-7,-178,52,102,.,.
O=C(NNC(=O)c1ccccc1)C(=O)N1CCCCC1,-1.6,-5,.,.,101,i,1
COc1ccc(NC(=O)Cn2nnc(C(=O)NCc3ccccc3)c2N)c(OC)c1,.,4,20,84,101,i,0.84
CC1(c2ccc(Cl)cc2)NC(=S)N2C1NC(=S)N2c1ccccc1 (stereo not drawn),.,.,.,.,102,i,0.86
CC1(C)Cc2c(C#N)c(N3CCOCC3)nc(-c3ccccc3)c2CO1,5.1,5,-66,45,105,i,1
O=c1oc(-c2ccc(F)cc2)nc2ccsc12,-3.1,5,.,.,103,i,0.96
O=S(=O)(c1cccs1)N1CCN(Cc2ccccc2)CC1,-0.6,0,.,.,99,i,1.1
O=C(CSc1ccc2nnc(-c3ccc(F)cc3)n2n1)N1CCCc2ccccc21,0.9,3,.,.,112,i,0.94
COc1ccc(C2CC(c3ccc(Cl)cc3)Nc3nc(NC(=O)c4ccco4)nn32)cc1 (stereo not drawn),0.1,-8,0,134,95,i,0.83
Cc1ccc(C(=O)CC(=O)COc2ccc(Cl)cc2C)cc1,0.2,-12,20,70,54,i,0.92
Cc1cc(N/N=C/c2ccco2)c2ccccc2n1,.,-4,47,106,100,i,0.89
O=C(CCC1CCCN(C(=O)c2ccco2)C1)NCc1ccccc1F (stereo not drawn),.,3,.,.,100,i,1.1
Cc1ccc(OCCN2C(=O)S/C(=C\c3ccc(C)o3)C2=O)cc1,-1.6,-8,-18,91,104,i,0.91
COC(=O)C(C(=O)OC)C(c1ccccc1)C(C(=O)c1ccccc1)[N+](=O)[O-] (stereo not drawn),.,.,.,.,90,i,1.1
COc1ccc(-c2nc(NC(=O)C3=NN(c4cccc(C)c4)C(=O)CC3)sc2C)cc1,.,-8,-14,86,102,i,0.9
Cc1ccc(C2=NNC(C(O)C(O)C(O)CO)S2)cc1 (stereo not drawn),-2.1,-4,62,24,101,i,1
Cc1cc(C)n(Cc2ccc(F)cc2)c(=O)c1C#N,-1.8,-12,.,.,108,i,0.97
O=C(c1ccco1)N1CCN(c2ccnc3cc(Cl)ccc23)CC1,.,4,-12,126,102,i,0.78
CCC(=O)Nc1cc2nn(-c3ccccc3)nc2cc1Cl,-1.6,-2,.,.,95,i,0.92
CCCNC(=O)C1CCN(S(=O)(=O)c2cccs2)CC1,.,2,67,81,103,i,0.96
Cc1ccc(-n2c(-c3cc(C)n(C)n3)n[nH]c2=S)cc1,-2.6,-12,24,121,101,i,0.96
CCCCC(=O)Nc1ccc(NC(=O)C2CC2)nc1,-0.4,-7,-8,118,81,i,1
Cc1nc2c(C(=O)NCCC(C)C)c[nH]n2c(=O)c1Cl,-2.2,-19,22,140,103,i,0.96
Fc1ccc(F)c(C2=NNC(=Nc3ccccc3F)SC2)c1,-1.1,5,16,159,100,i,0.73
CCCN(Cc1cc2cc(OC)ccc2[nH]c1=O)C(=O)c1ccco1,.,.,.,.,102,i,0.84
CC(=O)Nc1nc2ccc(-c3nc4ccccc4o3)cc2s1,-1.3,-4,-17,146,103,i,0.89
Cc1c(NC(=O)C2C3C=CC(C3)C2C(=O)O)c(=O)n(-c2ccccc2)n1C (stereo not drawn),-2.1,-3,26,107,101,i,0.93
CCc1ccc2[nH]c(=O)c(CN(CC3CCCO3)C(=S)NCc3ccco3)cc2c1 (stereo not drawn),.,.,.,.,104,i,0.81
O=C(N/N=C/c1cccc([N+](=O)[O-])c1)c1ccc(CN2CCOCC2)cc1,-0.2,7,20,132,98,i,0.95
O=C(CCC1CCCC1)Nc1cccn(Cc2ccccc2Br)c1=O,.,.,.,.,95,i,0.97
COc1cccc(C2=CC(c3cccs3)n3nnnc3N2)c1 (stereo not drawn),0.1,-1,-54,105,71,.,.
Cc1ccc(-c2nn(-c3cccc(F)c3)cc2CN2CCN(c3ccccn3)CC2)o1,.,-5,.,.,100,i,0.88
Cc1nnnn1CC(=O)Nc1ccccc1[N+](=O)[O-],-0.9,3,-53,90,98,i,0.9

# Entries of single compounds as entered above. Values in the order: GALR2 agonist | PKD1 kinase inh | INS promoter inh | INS promoter inh cell count | RGS16-Gao | HSV replic up | HSV replic up primary fold
# Results for Fc1ccc(F)c(C2=NNC(=Nc3ccccc3F)SC2)c1 = -1.1 | 5 | 16 | 159 | 100 | i | 0.73
# Results for CC(=O)Nc1nc2ccc(-c3nc4ccccc4o3)cc2s1 = -1.3 | -4 | -17 | 146 | 103 | i | 0.89

# An excerpt of these results, as labelled records.
Cc1nn(C)c(C)c1S(=O)(=O)N(CC(=O)Nc1ccccn1)c1ccc(C(C)C)cc1
  GALR2 agonist: -1.6
  PKD1 kinase inh: 3
  INS promoter inh: .
  INS promoter inh cell count: .
  RGS16-Gao: 101
  HSV replic up: i
  HSV replic up primary fold: 0.88
COc1ccc(/C=C(/NC(=O)c2ccccc2)C(=O)N/N=C/c2cccs2)cc1OC
  GALR2 agonist: -2.4
  PKD1 kinase inh: 1
  INS promoter inh: .
  INS promoter inh cell count: .
  RGS16-Gao: 99
  HSV replic up: i
  HSV replic up primary fold: 1
O=C(NCc1cccnc1)c1cnn2ccccc12
  GALR2 agonist: -3.5
  PKD1 kinase inh: -9
  INS promoter inh: .
  INS promoter inh cell count: .
  RGS16-Gao: 106
  HSV replic up: i
  HSV replic up primary fold: 0.93

# (list continues)
SMILES,GALR2 agonist,PKD1 kinase inh,INS promoter inh,INS promoter inh cell count,RGS16-Gao,HSV replic up,HSV replic up primary fold
CC(C)C1(C)C(=O)N=C2c3ccccc3C(=O)N21 (stereo not drawn),-3.2,-5,-35,114,124,i,1
CCOC(=O)c1sc(NC(=O)CSc2nnc(-c3ccc(OC)cc3)n2CCOC)nc1C,-1.8,-5,16,95,104,i,1
COc1ccccc1OCc1nc(C#N)c(N2CC(C)CC(C)C2)o1 (stereo not drawn),-1.9,3,.,.,101,.,.
COC(=O)/C=C1\C(=O)N(c2nc3ccc(OC)cc3s2)C(=S)N1c1ccc(F)cc1,-5.2,-13,4,126,101,.,.
CC1CCc2c(sc3nc4n(c(=O)c23)CCS4)C1 (stereo not drawn),-2.1,1,.,.,102,i,1
CCCCOCCCNS(=O)(=O)Cc1ccccc1,-1.2,0,-14,84,105,i,1.1
COCCN(C(=O)COc1ccc(Cl)cc1)c1nnc(-c2cccnc2)s1,1.0,3,-44,121,143,i,1
O=C(COC(=O)c1cc(Cl)ccc1[N+](=O)[O-])Nc1cccc2ccccc12,-1.0,1,-36,123,57,i,0.99
COc1ccc(Cl)cc1NC(=O)C(C)N(C)Cc1cccc(Cl)c1Cl (stereo not drawn),-0.2,3,.,.,97,i,1.2
CC(C)(C)NC(=O)NC(=O)CN1CCCCCCC1,.,-6,.,.,102,i,0.99
COc1ccc(-n2c(SCC(=O)NCc3ccco3)nnc2-c2c[nH]c3ccccc23)cc1,-1.5,2,.,.,143,i,0.79
Clc1ccc(-c2cn(-c3ccccc3)c3[n+]2CCS3)cc1,.,-5,.,.,105,i,1
COc1ccc(/C=C/C(=O)O)cc1S(=O)(=O)N1CCCCC1,.,-7,.,.,111,i,1.1
CCOc1ccc(NC(=O)CC2Nc3ccccc3NC2=O)cc1 (stereo not drawn),.,-4,-31,103,101,i,0.98
O=C(NC1CCCCCC1)C(=O)NC1CCCC1,0.5,-7,43,124,109,i,0.94
CC(CCN(C)C)OC(=O)c1ccc(C(C)c2ccccc2)o1 (stereo not drawn),0.0,-8,.,.,98,i,0.87
COc1ccc(CCNC(=O)c2[nH]c(C)c(C(C)=O)c2C)cc1OC,1.0,0,.,.,97,i,0.94
CCOCc1c(C(=O)NC2=Nc3ccccc3NC(CC)=C2C(=O)OCC)oc2ccccc12,.,-3,.,.,102,i,0.92
CCN(C(=O)Cc1cccs1)c1nnc(-c2cccnc2)s1,-1.4,-11,-64,147,42,i,1
O=C(c1ccco1)N1CCN(c2nnc(-c3ccccc3)c3ccccc23)CC1,-2.0,0,-53,112,103,i,1
COc1ccc(-c2nnc(SCC(=O)Nc3ncc(C(F)(F)F)cc3Cl)n2CC(C)C)cc1,-1.0,3,.,.,105,i,0.91
CC(=O)NC1=NN(C(C)=O)C(C)(CCS(=O)(=O)c2ccc(Br)cc2)S1 (stereo not drawn),6.9*,-11,-43,75,99,i,1
COC(=O)c1ccc(NC(=O)CSCC(=O)OCC(=O)c2ccc(Br)cc2)cc1,-1.5,2,8,120,106,i,1
O=C(NCCN1C(=O)CSC1=O)C1CC(=O)N(c2ccccc2)C1 (stereo not drawn),-1.1,-7,0,127,84,i,1
COc1cc(NC(=O)N[C@@H](CCSC)C(=O)O)cc(OC)c1,.,.,.,.,84,i,1
CC(=O)c1ccc(Nc2cc(C)nc3c(C)cccc23)cc1,.,-6,.,.,109,i,0.61
Cc1cc(NC(=O)c2c([N+](=O)[O-])c(C)nn2C)no1,-1.7,-6,-19,84,113,i,1
O=C(/C=C/c1ccc(F)cc1)NC(=S)NC1CCCCC1,.,.,.,.,104,i,0.86
CN1CCN(C(=S)Nc2cccc(S(=O)(=O)N(C)C)c2)CC1,.,2,9,94,97,i,1
COc1cccc(N=Cc2c(O)n(-c3cccc(C)n3)c(=O)c3ccccc23)c1,-0.9,-1,9,79,103,i,0.9
Cc1cc(C)c(NS(=O)(=O)c2cccc3cccnc23)c(C)c1,.,-3,.,.,101,i,0.85
COc1cccc(NC(=O)NC(C)C2CC3CCC2C3)c1 (stereo not drawn),.,6,.,.,104,i,0.9
CCSCc1nnc(SCC(=O)c2ccc(OC)cc2)n1C,-0.4,4,52,132,100,i,0.97
COC(=O)c1ccc(CN2C(=O)NC3(CCC(C)CC3)C2=O)cc1 (stereo not drawn),.,-7,.,.,96,i,1
N#Cc1nc(N2CCCCC2)nc(N2CCOCC2)n1,0.3,-11,-14,190,103,i,0.99
Cc1ccc(N=C2NC(=O)/C(=C\c3cccs3)S2)cc1C,0.9,-6,21,106,166,i,0.94
Nc1c(-c2ccccc2)cnn1-c1cccc([N+](=O)[O-])c1,-3.0,-4,-7,80,121,i,0.97
Cc1ccc(-c2ccc(S(=O)(=O)NCc3ccco3)cc2)cc1,.,-3,.,.,103,i,1.1
CCC(C)NC(=O)CSC1=Nc2ccccc2C2=NC(CC(=O)NCc3ccc(F)cc3)C(=O)N12 (stereo not drawn),-0.8,-3,-43,79,86,i,0.88

# Exported with tabs: entries from further up.
Structure	GALR2 agonist	PKD1 kinase inh	INS promoter inh	INS promoter inh cell count	RGS16-Gao	HSV replic up	HSV replic up primary fold
CCSCc1nnc(SCC(=O)c2ccc(OC)cc2)n1C	-0.4	4	52	132	100	i	0.97
COC(=O)c1ccc(CN2C(=O)NC3(CCC(C)CC3)C2=O)cc1 (stereo not drawn)	.	-7	.	.	96	i	1

# High-throughput results deposited in PubChem BioAssay by several laboratories.
